Compound activity (PubChem)
Arbovirus inh – antivirals against arbovirus infection, primary screen, cell-based, full library, 10K replicate subset. arbovirus infection cell-based antiviral screen. inhibition, % at 10 µM. 0.37% of 200,000 active;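 active = inhibition from about 30%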;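 also: bluetongue infection of BSR cells; cell survival read as ATP light after 72 h; 0% = infected wells without compound and 100% = uninfected wells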
Mtb betalactam – beta-lactam sensitization of Mtb H37Rv, H37Rv. M. tuberculosis H37Rv growth with meropenem, percent inhibition; hits of this screen are not shown here. inhibition, % at 25 µM. 0.27% of 330,000 active. AID 434955, 2010;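 active = about 74% or more and at least 40 points above the plate without the antibiotic, then above 30% in a dose series; inconclusive = first-round hits that could not be retested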;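 also: growth measured after seven days incubation then overnight dye step; 0% = bacteria only wells and 100% = bacteria with antibiotic; twin plates without the antibiotic show which effects depend on it; some results filed as inactive read as strong as hits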
RecA splice inh – Mtb RecA intein splicing inhibitors, primary screen, biochemical, fluorescence, HTS; Protein RecA (Mycobacterium tuberculosis (strain ATCC 25618 / H37Rv)), P9WHJ3; cell-free RecA intein splicing; inhibition, %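 (about 9 µM by stock and volumes)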; 0.75% of 290,000 active; AID 2221, 2009; in the data active = inhibition above about 30%; inconclusive = no clear call, values can overlap the other calls;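 also: 0% = vehicle wells and 100% = reference inhibitor control wells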
Target sequence (P9WHJ3 whole entry, looked up, canonical isoform): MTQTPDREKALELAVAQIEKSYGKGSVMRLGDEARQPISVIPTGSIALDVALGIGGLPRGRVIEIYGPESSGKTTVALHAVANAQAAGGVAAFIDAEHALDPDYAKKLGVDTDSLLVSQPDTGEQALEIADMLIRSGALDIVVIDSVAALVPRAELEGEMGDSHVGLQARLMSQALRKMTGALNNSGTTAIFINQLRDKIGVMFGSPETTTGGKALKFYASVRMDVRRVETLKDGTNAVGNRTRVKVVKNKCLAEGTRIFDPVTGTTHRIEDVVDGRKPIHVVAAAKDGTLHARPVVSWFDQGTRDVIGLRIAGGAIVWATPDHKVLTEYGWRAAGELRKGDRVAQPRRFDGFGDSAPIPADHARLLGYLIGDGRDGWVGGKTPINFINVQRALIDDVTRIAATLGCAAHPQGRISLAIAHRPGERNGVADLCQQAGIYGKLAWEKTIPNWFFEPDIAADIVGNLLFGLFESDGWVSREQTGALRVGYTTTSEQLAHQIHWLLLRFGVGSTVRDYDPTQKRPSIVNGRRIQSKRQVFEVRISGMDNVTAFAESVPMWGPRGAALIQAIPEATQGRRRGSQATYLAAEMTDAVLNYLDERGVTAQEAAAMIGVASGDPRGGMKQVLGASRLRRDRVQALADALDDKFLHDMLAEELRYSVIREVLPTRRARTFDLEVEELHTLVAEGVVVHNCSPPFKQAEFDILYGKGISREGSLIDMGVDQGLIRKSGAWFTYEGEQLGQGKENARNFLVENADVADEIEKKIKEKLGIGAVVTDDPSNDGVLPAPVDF
YopH PTP inh – YopH tyrosine phosphatase inhibitors, primary screen, biochemical, fluorescence Ex485/Em525. AID 898, 2007. inhibition, %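 (about 10 µM by stock and volumes)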. YopH tyrosine phosphatase [Yersinia enterocolitica]. 0.16% of 140,000 active;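 active = inhibition of 50% or more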;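 also: controls were vehicle for no effect and minimum signal wells for full effect; inactives centre near -20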
Mtb H37Rv – M. tuberculosis H37Rv growth inhibitors, H37Rv strain (AID 1626); M. tuberculosis H37Rv growth inhibition; higher % means a stronger effect; inhibition, % at 10 µM; hits with a dose series show IC50 in µM; 0.95% of 220,000 active;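 active = confirmed in a dose series; inconclusive = inhibition above 80% but not taken into the dose series; inactive = below 80% or under 30% at every dose of the series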;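 also: bacteria incubated seven days before Alamar blue readout; 0% = bacteria only wells and 100% = bacteria with antibiotic wells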
Arbovirus inh repeat – recorded beside Arbovirus inh, whose call it bears; inhibition, %; measured here: 10K subset replicate screen; many hits read low in the repeat;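 first of two repeat runs on a subset; 0% = infected and 100% = uninfected wells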
Numbers without * were called inactive; ? = inconclusive; nt = not tested or not shown. Not all compounds are listed. The share of hits here may be higher or lower than overall.

SMILES	Arbovirus inh	Mtb betalactam	RecA splice inh	YopH PTP inh	Mtb H37Rv	others
Cc1cccc(Nc2nc(N)c([N+](=O)[O-])c(N3CCOCC3)n2)c1	-8	0	3.5	-23	9%
O=C1[C@@H]2[C@H](C(=O)N1Cc1cccnc1)[C@H]1C=C[C@@H]2C1	9	-8	-1.6	-4	4%
CC(O)Cn1c(=O)c2c(nc(Br)n2Cc2ccccc2)n(C)c1=O (stereo not drawn)	0	4	-0.7	-11	-3%
COCCN(C)C(=O)CC1C(=O)NCCN1CC(c1ccccc1)c1ccccc1 (stereo not drawn)	5	0	-2.7	nt	-4%
O=C(COC(=O)C1c2ccccc2Oc2ccccc21)NC1CCS(=O)(=O)C1 (stereo not drawn)	14	14	1.7	-54	-6%
S=c1nc(-c2ccccc2)[nH]n1-c1ccccc1	7	?	0.4	-30	nt
COCC(=O)N1CCCC(C(=O)c2ccc(-c3ccccc3)c(F)c2)C1 (stereo not drawn)	1	1	0.4	nt	-6%
COc1ccc(N(C(=O)Nc2ccc(Cl)cc2)C2=NCCC2)cc1	-14	23	8.1	-4	-4%
NC(=S)N=Nc1c(O)n(C2OC(=O)c3ccccc32)c2ccccc12 (stereo not drawn)	3	9	9.9	-8	nt
Cn1c(=O)[nH]c(=O)c2c1nc(Br)n2CCSc1ncccn1	-2	3	2.6	-12	-1%
CCOC(=O)N1CCN(S(=O)(=O)c2ccc(OCC)cc2)CC1	23	12	4.6	-2	-2%
CCOC(=O)C1CCN(Cc2ccc(F)c(Br)c2)CC1	2	3	6.5	-34	-14%	Arbovirus inh repeat=3
COc1ccc(C(=O)N(Cc2cccs2)C2CCS(=O)(=O)C2)cc1 (stereo not drawn)	nt	2	0.4	nt	nt
O=C(c1ccc(-n2cnnn2)cc1)N1CCN(C(c2ccccc2)c2ccccc2)CC1	5	21	5.8	-38	-2%
O=C(C1=C[C@H](C2CCCCC2)C[C@H](OCCCCO)O1)N1CCOCC1	-1	-9	0.2	nt	-14%
CC(=O)Nc1nc(SCC(=O)NCC2CCCO2)[nH]c(=O)c1NC(=O)c1cccs1 (stereo not drawn)	5	5	-0.7	nt	2%
Cc1cc(C)n2nc(S(=O)(=O)N(C)c3ccccc3)nc2n1	-5	2	0.0	-8	0%	Arbovirus inh repeat=-1
CCOC(=O)c1cnc2ccc(F)cc2c1Nc1ccc2c(c1)OCCO2	1	9	1.0	-30	13%
COc1ccc(CNC(=O)c2cc(-c3ccccc3O)n[nH]2)cc1	5	-6	2.6	-32	5%
Cc1cc(=O)oc2cc(OCC(O)CN3CCc4ccccc4C3)ccc12 (stereo not drawn)	-1	-5	1.0	-22	5%

In the list so far, 4 have an NH in an aromatic ring:
SMILES	Arbovirus inh	Mtb betalactam	RecA splice inh	YopH PTP inh	Mtb H37Rv	others
S=c1nc(-c2ccccc2)[nH]n1-c1ccccc1	7	?	0.4	-30	nt
Cn1c(=O)[nH]c(=O)c2c1nc(Br)n2CCSc1ncccn1	-2	3	2.6	-12	-1%
CC(=O)Nc1nc(SCC(=O)NCC2CCCO2)[nH]c(=O)c1NC(=O)c1cccs1 (stereo not drawn)	5	5	-0.7	nt	2%
COc1ccc(CNC(=O)c2cc(-c3ccccc3O)n[nH]2)cc1	5	-6	2.6	-32	5%

Continued.
SMILES	Arbovirus inh	Mtb betalactam	RecA splice inh	YopH PTP inh	Mtb H37Rv	others
CCOC(=O)c1cc(S(=O)(=O)Nc2cccc(OC)c2)cn1C	nt	4	1.0	nt	nt
S=C(NNC(=S)NC1CC2C=CC1C2)NC1CC2C=CC1C2 (stereo not drawn)	nt	8	1.1	nt	-4%
COc1ccccc1N1CCN(C(=O)c2cc3c(C)nc4ccccc4c3o2)CC1	nt	82	1.3	nt	nt
O=C(COc1cccc2cccnc12)NNC(=O)Nc1ccccc1	2	-3	-1.8	nt	6%
CN(C)CCCNCCCNC(=O)c1ccco1	1	-6	1.0	-31	-5%
Cc1ccc(C(=O)NCC(=O)OCC(=O)Nc2cc(C)c(C)cc2[N+](=O)[O-])cc1	-1	-2	1.7	-30	0%
COc1ccc(-c2nc(SCC(=O)N3CCCC3)n[nH]2)cc1	nt	3	-2.4	nt	nt
Cn1c(=O)[nH]c(=O)c2c1nc(CN1CCN(c3cccc(Cl)c3)CC1)n2Cc1ccccc1Cl	-7	-2	16	-22	75%	Arbovirus inh repeat=-16
Cc1noc(N)c1C(=O)Nc1ccc(F)cc1	4	-2	2.7	-28	2%
CCCn1nc(C(=O)Nc2cc(C(=O)OC)ccc2C)c2ccccc2c1=O	3	2	-3.1	-35	0%
COc1cc(CNc2ccc(N3CCCC3)cc2)cc(Cl)c1OC	-23	42	0.8	nt	7%
Cc1sc(NC(=O)Cc2ccc3c(c2)OCO3)nc1-c1ccc2c(c1)CCN2C(=O)c1ccccc1F	-15	88	-2.0	-14	13%
O=C(c1ccc(Cl)s1)N1CCN(c2nc3ccccc3s2)CC1	9	-6	0.2	-21	-6%	Arbovirus inh repeat=5
C/C(Cn1nc([N+](=O)[O-])cc1C)=N\NC(=O)c1ccc(O)cc1O	-6	8	1.5	-40	-2%
O=C(COC(=O)c1cccc(Cl)c1Cl)NCCN1C(=O)CSC1=O	3	-6	0.1	-20	-1%
Cc1cc(N2CCCC2)nc(-c2ccccc2O)n1	6	4	-0.1	-47	-6%
CC(=O)c1ccc(N/C=C\C(=O)c2ccc(C)cc2)cc1	0	-3	-3.0	nt	-3%
CCN(CC(=O)Nc1c(F)cccc1F)C(=O)C1CCC1	nt	-10	0.1	nt	nt
COc1cccc(CN2CCN(S(=O)(=O)c3ccc(Cl)s3)CC2)c1	nt	7	6.9	nt	nt
O=C(Cc1ccccc1)N1CCC(c2ccccc2)C1 (stereo not drawn)	nt	-9	1.6	nt	-8%
O=C(Nc1ccccc1N1CCCC1)c1cccc(S(=O)(=O)N2CCOCC2)c1	nt	0	-2.8	nt	nt
COc1cc(/C=N/NC(=O)COc2cccc(F)c2)ccc1OS(=O)(=O)c1ccc(C)cc1	-21	1	8.3	2	4%
CCc1nn(CCCC(=O)NCc2ccccc2C)c(=O)c2cc3occc3n12	nt	-11	1.2	nt	nt
COc1cc(C(=S)N2CCCC2)ccc1OCC(N)=O	nt	-4	0.7	nt	nt
COc1ccccc1N(CC(=O)NC1CCCCC1)C(=O)CCC(=O)Nc1ccccn1	-1	-14	-2.3	-35	8%
CCCCCCCn1c2c(c(=N)c3c1CCC3)CCCC2	-17	nt	2.9	nt	14%
CC1(c2nnc(-c3ccccc3)o2)CC(c2c(Cl)cccc2Cl)=NO1 (stereo not drawn)	nt	2	-3.8	nt	-11%
CN(C)c1ccc(C(CNC(=O)c2ccc(-c3ccccc3)cc2)N2CCOCC2)cc1 (stereo not drawn)	nt	-9	-3.4	nt	nt
COc1ccccc1C1=CC(=O)CCC1	nt	-3	-2.1	nt	-10%
Cc1cccc(C(=O)NNC(=O)c2ccc(Br)cc2)c1	-1	-12	-0.6	nt	-4%
O=C(Cn1cncn1)NCCCc1ccccc1	23	2	-3.9	nt	-3%
COc1ccc(-c2cc(C(=O)Nc3c(F)cc(F)cc3Br)no2)cc1	nt	96	1.4	nt	nt
CCOC(=O)C(=N/O)/C(C)=N/NC(C)=O	2	-3	1.8	nt	-5%
O=C(/C(=N/O)n1cncn1)c1ccccc1Cl	nt	-16	2.9	nt	3%
Cc1ccc2sc(N(CCN(C)C)C(=O)c3ccc4ccccc4c3)nc2c1C	nt	4	2.8	nt	nt
COc1cc(-n2c(=O)c3ccccc3n(CC(=O)OCc3ccccc3)c2=O)cc(OC)c1OC	5	-8	-1.4	nt	-1%
O=C(COC(=O)CCC(=O)c1ccc2c(c1)OCCO2)NCc1ccc2c(c1)OCO2	0	0	-0.3	-28	-7%
COc1cc2c(cc1OC)C(C)N(C(=O)C(NC(=O)c1ccccc1)C(C)C)CC2 (stereo not drawn)	nt	6	-57	nt	nt
Cc1cc(NC(=O)CC2CCCC2)ccc1Br	nt	94	10	nt	nt
Nc1nnnn1NCc1cccc(OCc2ccccc2)c1	-4	-9	-0.4	-4	12%

Taken from above for reference:
SMILES	Arbovirus inh	Mtb betalactam	RecA splice inh	YopH PTP inh	Mtb H37Rv	others
CN(C)c1ccc(C(CNC(=O)c2ccc(-c3ccccc3)cc2)N2CCOCC2)cc1 (stereo not drawn)	nt	-9	-3.4	nt	nt
COc1ccccc1C1=CC(=O)CCC1	nt	-3	-2.1	nt	-10%

The listing continues.
SMILES	Arbovirus inh	Mtb betalactam	RecA splice inh	YopH PTP inh	Mtb H37Rv	others
CCN(CC)CCOCCOc1ccccc1F	-3	-1	-0.8	-13	-1%
COCC1CCN(Cc2c(C(=O)N3CCc4ccccc4C3)nc3ccc(Cl)cn23)C1 (stereo not drawn)	nt	-8	-7.5	nt	nt
C=CCn1c(SCC(=O)NCc2ccco2)nc2ccccc2c1=O	3	-3	nt	nt	4%
Cc1ccccc1N(CC(=O)NCc1ccncc1)S(C)(=O)=O	3	0	-2.4	-31	-5%
COCCNCC(=O)Nc1ccc(C)c(S(=O)(=O)N2CCCCC2)c1	13	-4	3.5	nt	-4%
CCOc1ccc(/C=C/[N+](=O)[O-])c2ccccc12	-35	100	4.5	-16	14%
FC(F)(F)c1cc(-c2ccccc2)nc(-n2cncn2)n1	-2	2	2.3	-29	1%
COc1ccccc1CCN=C(N)NS(=O)(=O)c1ccc(F)cc1	nt	-8	5.6	nt	nt
O=C(O)c1cc2ccccc2n1-c1ccccc1	1	3	-0.1	-33	1%
C=CCN(c1ccc(C(=O)NCCN2CCOCC2)cc1)S(C)(=O)=O	nt	9	-0.3	nt	nt
CCOCCCNC(=O)C(NC(=O)c1ccc2c(c1)OCO2)c1ccc(Cl)cc1 (stereo not drawn)	8	-2	4.1	nt	-10%
CC/C(=N/N=C(\CC)c1ccccc1)c1ccccc1	-1	-2	5.6	-21	-5%
COC(=O)C1CCN(C(=O)COC(=O)c2n[nH]c3ccccc23)CC1	5	-5	-6.7	5	-8%
COc1cccc(N2CCN(C(=O)C3CCN(S(=O)(=O)c4cccs4)CC3)CC2)c1	0	-2	1.6	nt	-6%
O=C(Nc1ccccc1-c1ccccc1)c1ccccc1	nt	6	2.7	nt	nt
CC1=C(C(=O)Nc2cccc(C(=O)NC(C)c3ccccc3)c2)SCCO1 (stereo not drawn)	nt	-3	4.2	nt	nt
CN(C)c1nc(N)nc(CSc2nc3c(c(=O)n(C)c(=O)n3C)n2Cc2ccccc2F)n1	3	-8	-1.4	nt	-2%
CCN(CC(=O)Nc1c(F)cccc1F)C(=O)C1CCN(S(=O)(=O)c2ccc(C)c(C)c2)CC1	nt	2	-0.7	nt	nt
O=C(c1ccc(F)c(F)c1)N1CCC2(CC1)NCCc1[nH]cnc12	nt	-7	0.1	nt	nt
CCN(CC)CCN(Cc1cc2cc(C)ccc2[nH]c1=O)C(=O)Nc1ccccc1OC	1	-8	-0.2	-34	-14%
COc1ccccc1CNC(=O)CN(c1ccc(C)cc1)S(=O)(=O)c1c(C)noc1C	nt	1	1.4	nt	nt
Cc1cc(/C=C(\C#N)C(=O)OCC#N)c(C)n1CC(C)C	7	9	1.3	nt	3%
Cc1ccc(S(=O)(=O)CC(=O)N(CCCN(C)C)c2nc3ccc(C)cc3s2)cc1	nt	-2	0.6	nt	nt
N#C/C(C(N)=O)=c1/ccc2c(c1)N1C3=C(CCCC3)CC3CCCCC31N=2 (stereo not drawn)	-33	101	3.7	-2	?
O=C(Nc1nnc(SCc2cccc(F)c2)s1)c1ccco1	0	-8	-1.5	nt	-1%
Cc1cccc(/C=C/c2onc(C)c2S(=O)(=O)N2CCC(C(=O)N3CCCCCC3)CC2)c1	nt	-2	0.5	nt	nt
CC(C)(C)c1cc(C(=O)O)n[nH]1	5	-8	-0.9	-14	-4%
COC(=O)c1c[nH]n2c(=O)c(C(C)C)c(C)nc12	-1	9	-5.2	nt	4%
Cc1ccc2[nH]c(=O)c(CN(CCCN(C)C)C(=O)Nc3ccc(F)cc3)cc2c1	-13	-1	4.4	nt	nt
Cc1ccc(-c2cc(-c3ccc(C)cc3O)[nH]n2)cc1	nt	58	0.3	nt	nt
CCCc1cc(=O)[nH]c(SCc2cc(=O)oc3cc(C)c(C(C)C)cc23)n1	16	-2	0.8	-24	-5%
Cc1c(N=NC2=C(O)CC(C)(C)CC2=O)cc2c(c1[N+](=O)[O-])C(C)(C)CC2(C)C	nt	3	4.7	nt	5%
Cc1c(NC(=S)N/N=C/c2ccc(N(C)C)cc2)c(=O)n(-c2ccccc2)n1C	-2	-4	-4.7	-9	7%
O=C(CN1C(=O)c2ccccc2C1=O)N1CCN(c2ccccn2)CC1	10	-12	-2.1	-21	1%
Cc1ccc2nc(NC(=O)C3CC3C)sc2c1 (stereo not drawn)	nt	-2	1.5	nt	nt
